Assay outcomes as filed in PubChem BioAssay.
CDC25B CDK2 inh: human CDC25B-CDK2/CyclinA binding inhibition; hit rate 0.72% among 94,000; AID 1259370; z-score (concentration not given with the values); HTRF CDC25B-CDK2/CyclinA binding, anti-His/anti-Flag; stronger effect = higher value; P30305+P24941;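 further: score is relative to mean and SD of negative controls; strong numbers were not always called active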
HIV TAR-Tat: HIV-1 TAR-Tat binding disruption. HIV-1 TAR RNA, Tat peptide displacement FRET; stronger effect = higher value. z-score (test concentration not listed). hit rate 0.6% among 100,000;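 further: score is relative to mean and SD of negative controls; some compounds called inactive have numbers as strong as hits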
Numbers without * were called inactive; . = not tested or not shown.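 How the source made its calls: active means z-score from 3 up in half or more of its runs; inactive means the rest.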

Every second line gives: HIV TAR-Tat, CDC25B CDK2 inh
CC1Cc2ccccc2N1S(=O)(=O)c1csc(C(N)=O)c1 (configuration not stated)
    1.4, .
O=C(NCc1ccc(Cl)cc1)c1c(O)nc2ccccn2c1=O
    -0.44, -1.2
CC(=O)c1cc2sccc2[nH]1
    ., -2.2
CC(=O)CCC(=O)c1ccco1
    ., -2
CCC(=O)N1CCc2cc(Br)cc(S(=O)(=O)NCCCN(CC)c3ccccc3)c21
    ., 1.3
CCOc1ccccc1-n1nnc(-c2nc(-c3ccccc3C)no2)c1C
    -0.56, .
COc1ccc(NC(=O)C2=Cc3cc(Cl)ccc3OC=C2)c(OC)c1
    0.44, -1.9
CSc1ccc2nnc(-c3cccc(F)c3)n2n1
    ., -1.2
COc1ccccc1OCc1nc(-c2cccc(Br)c2)no1
    -0.39, -1
CCSc1nc2c(c(=O)n1C1CCOC(C)(C)C1)C1(CCCC1)Cc1ccccc1-2 (configuration not stated)
    1.4, -0.18
O=C(Cn1cnc(S(=O)(=O)N2CCCC2)c1)NC1CCCC1
    1.6, .
Cc1cccc(OCCSc2nc(-c3ccco3)nc3cc(=O)[nH]n23)c1
    -1.5, .
O=C(CCc1nnc2ccc(NCc3ccccc3)nn12)Nc1nccs1
    5.3, .
CC(=O)OCc1ccccc1S(=O)(=O)c1ccccc1COC(C)=O
    ., 2
CCOC(=O)Nc1nc2ccc(OC)cc2s1
    0.84, -2.7
Cc1nc2c(c(C)c1CCC(=O)NCC1CCN(CCc3cccs3)CC1)c(=O)n(C)c(=O)n2C
    -0.5, -1.6
COc1ccc(Cc2nc3c4cnn(-c5ccccc5)c4ncn3n2)cc1
    0.54, 1.7
O=C(C1CCCN(S(=O)(=O)c2cnc[nH]2)C1)N1CCN(c2ccccc2)CC1 (configuration not stated)
    ., -1.3
COc1ccc(-c2cn3cccnc3n2)cc1Br
    0.2, -0.72
NS(=O)(=O)c1ccc(Sc2cccs2)s1
    ., -1.6

Random excerpt: 6 entries already listed.
Every second line gives: HIV TAR-Tat, CDC25B CDK2 inh
NS(=O)(=O)c1ccc(Sc2cccs2)s1
    ., -1.6
Cc1nc2c(c(C)c1CCC(=O)NCC1CCN(CCc3cccs3)CC1)c(=O)n(C)c(=O)n2C
    -0.5, -1.6
COc1ccc(-c2cn3cccnc3n2)cc1Br
    0.2, -0.72
CCOC(=O)Nc1nc2ccc(OC)cc2s1
    0.84, -2.7
O=C(CCc1nnc2ccc(NCc3ccccc3)nn12)Nc1nccs1
    5.3, .
O=C(C1CCCN(S(=O)(=O)c2cnc[nH]2)C1)N1CCN(c2ccccc2)CC1 (configuration not stated)
    ., -1.3

Continued.
Every second line gives: HIV TAR-Tat, CDC25B CDK2 inh
COc1ccccc1-c1nnc(Cc2ccc3c(c2)OCO3)o1
    0.92, -1.1
CCOc1ccc(Nc2ncnc3c2ncn3-c2ccc(OCC)cc2)cc1
    1.4, 4.5
Cn1c(=O)c2c(c3ccccc31)OC(=O)CC2c1ccc(Cl)cc1 (configuration not stated)
    -0.74, 1
Cc1ccc(S(=O)(=O)n2nc(-c3ccco3)nc2NCc2ccc(Br)cc2)cc1
    3.1, -0.97
COCCNC(=O)C1(C)Cn2cnc(C(=O)OC)c2C(=O)N1C1CC1 (configuration not stated)
    1.8, .
CCCCCOC(=O)CN1C(=O)C(=O)c2cc(Br)cc(C)c21
    3.5, -3.2
C/C1=C\CC(C)(C)/C=C/CC2(C)OC2CC1 (configuration not stated)
    1.2, .
Cc1nn(-c2nncc(-c3ccccc3)n2)c2c1C(c1ccccc1Cl)CC(=O)N2 (configuration not stated)
    2.9, -1.6
COc1ccc(NS(=O)(=O)c2ccc3c(c2)CC(C)N3C(=O)C2CCC2)cc1Cl (configuration not stated)
    -1.1, .
Cc1cc(NC(=O)CCc2nc(CSc3nc4ccccc4s3)no2)no1
    0.13, .
Cc1noc(/C=C/c2cccs2)c1S(=O)(=O)N1CCC(C(=O)N2CCC(C)CC2)CC1
    2.3, .
CCC(Sc1nc2ncnc(N)c2[nH]1)C(=O)O (configuration not stated)
    -0.54, -1.1
CCN(CC)c1ccc(-n2cc3c(c2-c2ccc(C)cc2)c(=O)n(C)c(=O)n3C)cc1
    0.67, -1.1
COc1nccnc1NS(=O)(=O)c1ccc(NC(=O)c2cc(Cl)cc(Cl)c2)cc1
    ., -0.85
O=C(Nc1c(F)cccc1F)N(Cc1cccnc1)Cc1ccco1
    ., -2
CN(C(=O)C1CCCN(c2ncnc3c2nc2n3CCCCC2)C1)c1cccc(Cl)c1 (configuration not stated)
    -0.87, .
O=C(NC1CCN(Cc2c(F)cccc2Cl)CC1)C1CCN(C(=O)OCc2ccccc2)CC1
    ., -0.81
COC(=O)c1cc(C(=O)OC)cc(N2C(=O)c3c(C)nc4ccccc4c3C2=O)c1
    -0.15, -0.78
COC(=O)c1ccc(Br)o1
    ., 0.14
CC1(C)CC(=O)C2=C(C1)Nc1nonc1NC2c1ccc(Cl)cc1 (configuration not stated)
    0.74, -0.72
CC1CC(C)CN(CCCNC(=O)CC(=O)Nc2ccc3nc4n(c(=O)c3c2)CCCCC4)C1 (configuration not stated)
    ., -0.77
CCOC(=O)N1CCC(NC(=O)c2csc3c2CCCC3)CC1
    -0.08, -3.5
CCCc1c(C)nc2ncnn2c1Nc1ccc(N2CCOCC2)cc1
    -0.88, -2.5
O=C1N(Cc2ccc(Cl)cc2)c2ccccc2S(=O)(=O)N1c1cc(F)ccc1F
    1.9, .
CCOC(=O)c1c(C)[nH]c(C)c1S(=O)(=O)N1CCCCC1C(=O)OCC (configuration not stated)
    1.7, .
CCOc1ccc(-n2ccc(=O)c(C(=O)Nc3ccc(OC)cc3OC)n2)cc1
    0.54, 2.3
Cc1nn(C)c(C)c1CNS(=O)(=O)Cc1ccccc1
    0.43, .
Nc1ccc2nc(-c3ccc(O)cc3)[nH]c2c1
    ., 0.44
C#CCn1c(C2CC(=O)N(c3ccccc3Br)C2)nc2ccccc21 (configuration not stated)
    1.3, -1.6
COc1ccc(C2C(C#N)=C(N)OC3=C2C(=O)CCC3)c(OC)c1 (configuration not stated)
    ., 0.66
CC1=C(C(=O)OCCOc2ccccc2)C(c2cccnc2)C2=C(CC(C)(C)CC2=O)N1 (configuration not stated)
    -0.41, -1.2
COc1cccc(NS(=O)(=O)c2cccs2)c1
    -0.04, -0.9
Cc1csc2c(=O)n(CCSc3ccc(Cl)cc3)c(=O)[nH]c12
    ., -2
O=C(Nc1cnc2ccccn2c1=O)N1CCN(c2ccccc2)CC1
    2.3, -1.9
O=C(Cn1c(=O)n(-c2ccc(Cl)cc2)c(=O)c2c3c(sc21)CCCCC3)NCc1ccco1
    -1.2, -0.6
CN(C)C1=C2CCN(Cc3ccccc3)C2C(C#N)C(=O)N1 (configuration not stated)
    ., 0.25
O=C(/C=C/c1ccc(-c2cccs2)s1)Oc1ccc(Cl)cc1
    ., -1.6
Cc1ccc2oc3c(c(=O)c2c1)C1(C(=O)N(C)c2ccccc21)N(CCCOC(C)C)C3=O (configuration not stated)
    2.1, -1.6
Cc1nnc(SCC(=O)c2ccc(F)cc2)s1
    0.06, -1.9
COc1ccc(-c2nc(N)c(C#N)c(-c3ccco3)c2C)cc1
    -3.2, -1.4
N#Cc1nc(COc2ccccc2F)oc1N1CCCCC1
    3.6, 0.31
NC(=O)c1c(NC(=O)CN2CCOCC2)sc2c1CCCC2
    2.9, -0.11
CCOC(=O)Cn1c(-c2cccs2)cc2cc(Cl)ccc21
    1.3, -1.7
CCOC(=O)c1c(NC(C)=O)sc2c1CCCC2O (configuration not stated)
    1.1, -0.09
O=C(Nc1ccccc1)N(CC1CCCO1)C1CCS(=O)(=O)C1 (configuration not stated)
    -0.97, -1.4
CN(Cc1ccccc1)S(=O)(=O)c1ccc(CN2C(=O)c3cccnc3C2=O)cc1
    -0.39, .
O=C(CN1C(=O)c2cccnc2Oc2ccc(Cl)cc21)NC1CCCC1
    0.12, .
O=C1CCC(=O)N1c1ccc(S(=O)(=O)N2CCN(c3nccc(C(F)(F)F)n3)CC2)cc1
    ., -0.41
Cc1c(C)n(CC(O)CNc2ccccc2)c2ccccc12 (configuration not stated)
    -4.1, -1.1
COC(=O)c1ccc(OC)c(CN2CNc3ccccc3S2(=O)=O)c1
    1.2, .

Carrying on.
Every second line gives: HIV TAR-Tat, CDC25B CDK2 inh
CCC(Cc1ccccc1)NC(=O)C1CCN(C(=O)c2cc3sccc3n2C)CC1 (configuration not stated)
    ., -1.6
O=C(Cn1c(NCCO)nc2ccccc21)c1cccc(Cl)c1
    0.86, 0.7
CCS(=O)(=O)N1CCCc2ccc(NS(=O)(=O)c3cc(Cl)ccc3OC)cc21
    0.16, .
N#Cc1nc(/C=C/c2ccc(F)cc2)oc1NC1CC1
    0.16, -1.3
O=C(c1ccc(CN2C(=O)CSc3ncccc32)cc1)N1CCCC1
    1.6, .
O=S(=O)(Nc1ccc(N2CCCCC2)cc1)c1ccccc1
    ., -1.2
Cc1cc(N2CCC(N(C)C3CCCC3)CC2)nc2cc(O)ccc12
    ., -0.83
O=C(NCc1c(-c2ccccc2)nc2n1CCS2)C1COc2ccccc2O1 (configuration not stated)
    1.7, .
CSC(=NC#N)N1CCN(c2c([N+](=O)[O-])cc(C(F)(F)F)cc2[N+](=O)[O-])CC1
    ., -1.4
COc1ccc(N2CC(O)=C(c3nc4ccccc4[nH]3)C2=N)c(OC)c1
    0.68, -0.96
c1cncc(-c2nn3c(Cn4cnc5ccccc54)nnc3s2)c1
    2.7, -0.27
COc1ccc(C2=C(C)C(=NC3CC3)NS2(=O)=O)cc1
    1.8, -0.01
CN(C(=O)CCc1nc(CN2CCN(S(=O)(=O)c3ccc(F)cc3)CC2)no1)C1CCCCC1
    0.79, .
CC(C)CCN(Cc1ccco1)C(=O)c1oc(=O)c2ccccc2c1-c1ccccc1
    2.4, -0.91
Cc1ccc(-c2csc3c2ncn2c(=O)n(CC(=O)Nc4ccc(C)c(F)c4)nc32)cc1
    2, .
CC(C)OCCCN1C(=O)c2ccc(-c3ccco3)n2CC1(C)C(=O)NC1CCCC1 (configuration not stated)
    1.9, .
Cc1nn(C(=O)CCCC(=O)O)c2ccccc12
    0.91, 0.56
COc1ccc(NC(=O)CSc2nn3c(=O)c(C)nnc3s2)c(OC)c1
    1.7, .
O=C(c1sc2ncccc2c1-n1cccc1)N1CCN(c2cccc(Cl)c2)CC1
    0.43, .
CCSc1nc(=O)c2c(n1C)NC(=O)CC2c1ccc(F)cc1F (configuration not stated)
    0.57, -0.42
Cc1cc2c(cc1S(=O)(=O)N1CCN(c3cccc(C)c3C)CC1)OCCN2C
    1.6, .
O=C(NC1CCCCCCC1)c1cccn2c(=O)c3sccc3nc12
    ., 1.3
Nc1cccc2c(S(=O)(=O)N3CCOCC3)cccc12
    ., 2.7
O=C(NCCC1=CCCCC1)C1CCN(c2nnc(N3CCCCC3=O)s2)CC1
    1.4, .
CC1=C(/C=C/C(C)=C/C=C/C(C)=C/C=C/C=C(C)/C=C/C=C(C)/C=C/C2=C(C)CCCC2(C)C)C(C)(C)CCC1
    2.6, .
Cc1cc(N2CCC(NC(=O)Nc3ccc(F)cc3)CC2)n2ncnc2n1
    0.79, -0.74
NCc1ccccc1
    ., -1.1
Cc1nn(C)c2c1c(C(F)(F)F)cc(=O)n2CC(=O)N1CCc2ccccc21
    7.1, .
CC(C)(C)c1cc(C(F)(F)F)nc(SCCCNC(=O)c2ccco2)n1
    1.5, 1.3
COc1ccc(CN2C(=O)c3cccnc3C2=O)cc1S(=O)(=O)NCc1ccc2c(c1)OCO2
    0.18, .
CC1(C)CC(=O)C2=C(C1)NC(=O)CC2c1ccc(-c2ccccc2)cc1 (configuration not stated)
    1.2, -0.54
Cc1c(C(=O)N2CCOCC2)c(S(=O)(=O)Nc2ccc(Br)cc2F)c(C)n1C
    -0.66, .
CC1CCN(CC2CCN(C(=O)Nc3ccc(F)cc3F)CC2)CC1
    2, .
Cc1ccc(O)c(C2Nc3c(C)cccc3-c3cc(C)nn32)c1 (configuration not stated)
    -1.1, 1.9
Cc1nc2ncnn2c(Nc2cccc(Cl)c2)c1C
    1.6, .
O=C(O)C1C2CCC(O2)C1C(=O)NCc1ccco1 (configuration not stated)
    -1.5, -2
CC(=O)Cn1cnc2sc(-c3ccccc3)cc2c1=O
    ., -1.5
O=C(c1ccco1)N1CCN(S(=O)(=O)c2cc3c4c(c2)CC(=O)N4CCC3)CC1
    1.9, .
S=C1NCN(CCCn2ccnc2)CN1
    ., -1.6
CCCc1nc2nc(C)c(NS(=O)(=O)c3cc(Cl)ccc3OC)c(=O)n2[nH]1
    -0.24, -0.56
CCOC(=O)c1c(C)nc2c(c1-c1ccc(C)cc1)C(=O)c1ccccc1-2
    0.18, -1.6
O=C(CCSc1nc(-c2ccco2)cc(C(F)(F)F)n1)Nc1ccccc1
    -1.6, -1.7
Cc1nc(-c2cccc(N3CC(C(=O)N4CCc5ccccc54)CC3=O)c2)no1 (configuration not stated)
    0.94, .
CCCn1c2ccccc2n2cc(-c3ccc(F)cc3)nc12
    2.5, -1.9
CC12CN3CC(C)(CN(C1)C3c1ccc(O)cc1O)C2 (configuration not stated)
    1.5, 0.45
O=C1NC(c2ccccc2)C(C(=O)c2ccccc2)C(O)(C(F)(F)F)N1 (configuration not stated)
    ., -1

Reprinted from above for reference:
Every second line gives: HIV TAR-Tat, CDC25B CDK2 inh
CC1Cc2ccccc2N1S(=O)(=O)c1csc(C(N)=O)c1 (configuration not stated)
    1.4, .
O=C(NCc1ccc(Cl)cc1)c1c(O)nc2ccccn2c1=O
    -0.44, -1.2
